# Source: PubChem BioAssay
# UCH37 inh: human UCH37 deubiquitinating enzyme inhibition | inhibition, % (test concentration not listed) | AID 588478 | Q9Y5K5 | 0.33% of 330,000 active | purified proteasome/UCH37, Ub-AMC cleavage fluorescence;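 active = mean of two replicates above 20%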;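 note: 0% = compound-free wells with enzyme and 100% = wells lacking proteasome; stock transfer was 100 nL into about 20 µL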
# Target sequence (Q9Y5K5 whole entry, looked up): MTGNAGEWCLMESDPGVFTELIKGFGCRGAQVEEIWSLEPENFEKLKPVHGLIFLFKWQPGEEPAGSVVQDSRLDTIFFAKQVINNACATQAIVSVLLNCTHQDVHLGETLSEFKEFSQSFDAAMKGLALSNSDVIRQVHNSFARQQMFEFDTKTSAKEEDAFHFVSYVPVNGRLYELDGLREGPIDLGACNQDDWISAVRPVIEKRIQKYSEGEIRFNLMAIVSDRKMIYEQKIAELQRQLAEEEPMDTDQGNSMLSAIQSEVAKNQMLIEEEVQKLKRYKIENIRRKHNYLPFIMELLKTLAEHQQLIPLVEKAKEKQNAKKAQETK
#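 Schedule: 30 min plus 25 min, room temperature / Material: human UCH37 within purified proteasomes / Technique: AMC fluorescence intensity at 355/460 nm / Buffer or medium: pH 7.4 Tris-HCl (50 mM) with ovalbumin, ATP-MgCl2, DTT / Controls: wells without proteasome as full block, compound-free enzyme plus substrate as uninhibited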
# RanGTP-Impb inh: disruptors of Ran-importin-beta complex formation – biochemical, FRET, CFP-Ran, YFP-importin-beta, homogeneous, primary screen; cell-free CFP-Ran/YFP-importin-beta FRET ratio; inhibition, % (test concentration not listed); 1.1% of 300,000 active;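 active = most replicates above 15%; inconclusive = exactly half above 15%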;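 note: 0% = DMSO wells and 100% = Ran loaded with GDP instead of GTP; wells of about 40 µL received 100 nL stock; the first replicate is given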
# Vif A3G: inhibitors of Vif binding to APOBEC3G peptide, primary screen, biochemical, TR-FRET, GST-Vif 1-94, biotin-A3G peptide, dose response retest (AID 1117319). inhibition, %; hits with a dose series show IC50 in µM. 0.57% of 260,000 active. TR-FRET GST-Vif / biotin-A3G peptide binding; higher % means a stronger effect; test concentration not given here; strong numbers were not always called active;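 active = above the screen mean plus three standard deviations and confirmed in dose response; inconclusive = results disagree or hit not tested in dose response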;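 note: Vif residues 1-94 fused to GST binding biotinylated APOBEC3G peptide 110-148; 0% = full assay without inhibitor and 100% = GST in place of GST-Vif; retest series ran down from 100 µM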
# FGF22 binding: FGF22 (human) thermal shift binding; recombinant FGF22 thermal shift, SYPRO orange fluorescence; percent of sucrose octasulfate shift, DMSO zero; Q9HCT0; 1.5% of 340,000 active; calls only at 9.99 µM; AID 651658;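 active = melting point raised past a set limit in the mean and every replicate; inconclusive = no clear call; three in four hits are not shown here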
# Target sequence (Q9HCT0 whole entry, looked up): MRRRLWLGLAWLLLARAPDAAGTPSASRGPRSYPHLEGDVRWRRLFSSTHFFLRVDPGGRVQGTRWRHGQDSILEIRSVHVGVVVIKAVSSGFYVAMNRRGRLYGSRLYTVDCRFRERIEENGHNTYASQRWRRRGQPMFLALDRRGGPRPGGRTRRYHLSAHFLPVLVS
# Ecoli growth: E. coli growth inhibition. Escherichia coli growth, OD600, 23 h; hits give low values. OD600 absorbance (no concentration beside the values). 0.21% of 330,000 active;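 active = OD600 absorbance below the run mean of sample wells minus 3.6 SD, in any replicate, cut at about 0.56 in these data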;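 note: stock transfer was 300 nL into about 60 µL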
# HNF4A DNA FP: change in binding of human HNF4 alpha to DNA. P41235. HNF4a-FITC DNA binding, fluorescence polarization, 1 h. activity change, % at 10 µM. 0.3% of 360,000 active; in the data active = activity change above about 30%, passing the limit was not always enough;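 note: controls were the assay level and a saturating level of protein; the project sought stronger binding though the title names inhibitors; some compounds called inactive have numbers as strong as hits; positive values seem to mean higher polarization but the record does not say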
# Target sequence (P41235 whole entry, looked up): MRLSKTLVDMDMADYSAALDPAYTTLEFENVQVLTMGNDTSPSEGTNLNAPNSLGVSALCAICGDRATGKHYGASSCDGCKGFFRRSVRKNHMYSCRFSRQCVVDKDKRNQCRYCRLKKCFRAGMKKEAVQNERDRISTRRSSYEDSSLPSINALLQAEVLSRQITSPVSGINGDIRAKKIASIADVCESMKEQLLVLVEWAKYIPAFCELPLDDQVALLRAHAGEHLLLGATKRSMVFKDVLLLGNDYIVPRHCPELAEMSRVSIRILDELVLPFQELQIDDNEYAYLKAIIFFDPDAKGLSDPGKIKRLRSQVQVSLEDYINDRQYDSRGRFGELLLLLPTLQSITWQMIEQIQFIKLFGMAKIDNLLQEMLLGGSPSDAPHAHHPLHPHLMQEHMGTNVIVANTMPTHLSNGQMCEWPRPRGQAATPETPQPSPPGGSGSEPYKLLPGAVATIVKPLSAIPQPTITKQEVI
# MLL AF4-AF9 inh: MLL-AF4/AF9 protein interaction inhibition | P42568 | AlphaScreen, biotin-AF4 peptide binding to FLAG-AF9 | inhibition, % at 10 µM | 0.47% of 350,000 active;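 active = every replicate reaching a set inhibition limit, whatever the replicate mean, cut at about 25% in these data; inconclusive = mean inhibition reaches that limit but some replicates miss it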;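 note: 0% = plate neutral control median and 100% = total signal loss; the record names both 10 and 1 µM as test concentration; the first replicate is given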
# The depositor's hits bear a star; i = inactive; u = inconclusive; x = no result given; & = joins results of further samples. The list is partial; the hit share may differ from the screen's.
# Below each SMILES: HNF4A DNA FP	MLL AF4-AF9 inh	RanGTP-Impb inh	UCH37 inh	Vif A3G	FGF22 binding	Ecoli growth
- COc1ccc(-c2nn(-c3ccccc3)cc2C(N)=O)cc1OC
  -0.8	1.9	6.1	2.4	x	i	0.677
- COCC(C)n1c(C)cc(C(=O)COC(=O)CNC(=O)c2ccccc2)c1C (stereo unspecified)
  1.8	-3.7	-3.4	0.9	x	i	0.631
- CC(C)[C@H](NC(=O)c1ccccc1F)C(=O)NC1CCCCCCC1
  4.5	-2.2	x	0.4	x	i	0.692
- CSCC[C@H](NC(=O)[C@@H]1CSC2c3ccccc3C(=O)N21)C(=O)NC1CCCC1 (stereo partly specified)
  6.4	-12.2	0.0	6.3	-2.9%	i	0.702
- O=C(Nc1ccc(F)c(Cl)c1)Nn1cnnc1
  0.0	-1.2	3.2	x	x	i	x
- Brc1ccc(Sc2cnc3ccccc3n2)cc1
  -0.8	x	-0.2	1.2	u	x	0.75
- O=C(c1ccc([N+](=O)[O-])cc1)N1CCN(c2cccc3[nH]ccc23)CC1
  -1.1	x	-2.4	2.4	4.6%	i	0.657
- CCN(Cc1nc2ccccc2c(=O)[nH]1)C(=O)c1ccc(C)c(NC(=O)c2ccco2)c1
  4.3	0.9	x	x	0.9%	i	x
- O=C(NC1CCCCC1)c1cc(C(=O)c2ccccc2Br)c[nH]1
  -0.3	-1.8	u	3.2	x	i	0.686
- CC(NC(=O)C1CCC(=O)N1Cc1ccccc1Cl)c1ccccc1 (stereo unspecified)
  0.2	2.0	-3.6	3.1	-2.1%	i	0.672
- CCOC(=O)C1CCN(Cc2ccc(OCc3ccccc3)c(OC)c2)CC1
  -4.8	x	-0.6	3.3	-4.1%	x	0.721
- COc1ccc(-c2nc(CSCC(=O)NC3CC3)c(C)o2)cc1OC
  -2.1	2.1	-11.9	-0.2	-2.2%	i	0.686
- O=C(CSc1ccc2nnc(CCNC(=O)c3ccccc3)n2n1)NC1CCCC1
  -0.8	-0.7	3.3	-3.2	x	i	0.71
- COc1ccc(CCn2c(C)cc3c(c2=O)C(c2ccncc2)C(C#N)=C(N)O3)cc1OC (stereo unspecified)
  0.2	-2.6	-3.0	-0.5	-3.0%&-7.7%	x	0.735
- COC(=O)C1CCN(Cc2cn(-c3ccccc3)nc2-c2ccc3c(c2)OCO3)CC1
  -3.9	6.8	-0.4	1.6	-5.6%	i	0.695
- CC(=O)Nc1ccc(CN2CCCCCC2)cc1
  -0.8	2.6	0.3	0.7	2.1%	i	0.652
- COC(=O)CCCn1cc(CN2CC(N3CCN(Cc4ccccc4F)CC3)CS2(=O)=O)nn1 (stereo unspecified)
  0.0	-4.0	x	x	x	i	x
- C=CCN1CCc2cc(O)c(O)cc2C(c2ccccc2)C1 (stereo unspecified)
  0.2	4.8	x	1.5	x	i	0.665
- C[C@H](CO)N1C[C@H](C)[C@@H](CN(C)Cc2ccc(-c3ccccc3)cc2)Oc2c(NC(=O)Cc3ccccc3)cccc2C1=O
  1.3	x	x	1.0	x	x	0.788
- Cc1cccc(N(CC(=O)NCCSCc2ccccc2)S(C)(=O)=O)c1C
  -5.0	-0.7	-0.8	2.5	-8.9%	i	0.695
- Cc1ccc(C)c(N2CCN(C(=O)c3cc(S(=O)(=O)N4CCOCC4)cn3C)CC2)c1
  -2.0	-8.5	-0.3	0.7	x	i	0.706
- COC(=O)c1cc(OC)c(OC)cc1NC(=O)c1ccoc1C
  x	x	2.5	-122.0	-5.9%	x	0.667
- O=C(CCOc1cccc(Br)c1)NNC(=O)COc1ccc(F)cc1
  1.8	1.0	x	-2.4	0.5%	i	0.643
- CCOc1ccc(N2CC(=O)Nc3ccccc3NCC2=O)cc1
  8.9	x	-3.6	-0.8	9.1%	x	0.691
- O=S(=O)(c1ccccc1)N1CCN(Cc2cc3c(cc2Br)OCCO3)CC1
  0.7	-4.2	x	2.6	-10.7%	i	0.674
- O=C1CS/C(=N/N=C/c2ccccc2)N1c1ccc(O)cc1
  -1.5	-10.2	0.8	x	x	i	x
- CCCOc1ccc(/C=N/n2nnnc2N)cc1OC
  1.2	0.5	-0.6	x	0.4%	i	x
- COc1cc(C2C(C(C)=O)=C(O)C(=O)N2c2ccc(C)cc2)ccc1O (stereo unspecified)
  -0.7	-2.8	-0.7	2.5	20.8%	x	0.724
- Cc1ccnc2nc(C(=O)OCC(=O)c3c[nH]c4ccccc34)nn12
  4.1	-5.5	3.3	1.0	-14.1%	i	0.647
- Cc1ccc(C23CC4CC(CC(CC(=O)N5CCOCC5)(C4)C2)C3)cc1
  0.1	x	24.7*	3.9	x	x	0.708

# Reprinted at random: 2 records from the list.
# Below each SMILES: HNF4A DNA FP	MLL AF4-AF9 inh	RanGTP-Impb inh	UCH37 inh	Vif A3G	FGF22 binding	Ecoli growth
- O=C(CSc1ccc2nnc(CCNC(=O)c3ccccc3)n2n1)NC1CCCC1
  -0.8	-0.7	3.3	-3.2	x	i	0.71
- CC(=O)Nc1ccc(CN2CCCCCC2)cc1
  -0.8	2.6	0.3	0.7	2.1%	i	0.652

# As entered above.
# Value for COc1ccc(-c2nn(-c3ccccc3)cc2C(N)=O)cc1OC in Ecoli growth: 0.677
# Value for Cc1ccc(C)c(N2CCN(C(=O)c3cc(S(=O)(=O)N4CCOCC4)cn3C)CC2)c1 in Ecoli growth: 0.706
# Value for CCCOc1ccc(/C=N/n2nnnc2N)cc1OC in RanGTP-Impb inh: -0.6

# Additional results
# Below each SMILES: HNF4A DNA FP	MLL AF4-AF9 inh	RanGTP-Impb inh	UCH37 inh	Vif A3G	FGF22 binding	Ecoli growth
- Cc1ccc(C)c(C(O)c2ncc(-c3cccc4ccccc34)[nH]2)c1 (stereo unspecified)
  -1.2	10.8	x	x	x	i	x
- Cc1ccc2nc(N(CCN(C)C)C(=O)/C=C/c3cccs3)sc2c1
  -0.2	5.5	3.3	-18.7	26.5%	i	0.709
- CCn1c(/C=C/c2cc[n+](C)cc2)nc2ccccc21
  -1.1	-0.3	-156.7	-203.5	-13.6%	i	0.667
- C[C@H](O)[C@@H]1C(=O)N2CCc3ccc(-c4cccc(F)c4)cc3[C@@H]2C[C@@H]1N(C)S(=O)(=O)c1ccccc1
  0.9	0.9	x	x	0.0%	i	x
- Cc1ccc2nsnc2c1S(=O)(=O)NCc1ccncc1
  0.6	x	-14.4	1.1	29.6%	x	0.755
- Brc1ccc(-c2cnc(-c3cccs3)o2)cc1
  5.8	x	-1.2	-80.3	-14.1%	x	0.703
- CN(C)CCNc1nc(-c2ccccc2)c2c(c1C#N)CC(C)(C)OC2
  -1.7	x	5.6	-4.9	6.3%	x	0.692
- CCOc1ccc(NC(=S)N2CCC(c3ccc(C)cc3)C2)cc1 (stereo unspecified)
  -3.0	-26.9	-1.5	3.3	-1.5%	i	0.663
- Cc1ccc(C(=O)NCC(=O)NCC(=O)OCC(=O)c2cccs2)cc1
  -6.3	x	0.2	15.7	u	x	0.698
- COCC(=O)NC1CC2CCCC(C1)N2Cc1ccccc1 (stereo unspecified)
  -2.4	x	6.5	-3.1	1.6%	x	0.728
- COc1ccc(CC(C(=O)Nc2ccc(OC)cc2)c2nn[nH]n2)cc1 (stereo unspecified)
  1.7	-9.8	u	1.7	x	i	0.71
- Cc1ccc(/C=N/NC(=O)c2ccccc2OCc2ccc(F)cc2)o1
  -0.6	1.4	-3.9	x	x	i	x
- CCOC(=O)C(=O)Nc1nccs1
  -1.6	-1.3	u	3.0	x	i	0.689
- CC1(C)CC(=O)C2=C(C1)OC(N)=C(C#N)C2c1cccc(OC(=O)c2ccco2)c1 (stereo unspecified)
  2.4	-2.2	5.1	1.2	7.6%	i	0.663
- CCCC(=O)Nc1ccc2c(c1)C(=O)NC2=O
  2.4	6.7	1.3	-322.1	0.4%	i	0.761
- CC(=O)Nc1ccc2c(c1)-c1ccc(F)cc1C2=O
  7.1	2.1	x	x	-12.1%	i	x
- CCN(CC)CCC(c1ccc(N(C)C)cc1)c1c(OC)cc(OC)c2c(-c3ccccc3)cc(=O)oc12 (stereo unspecified)
  3.1	51.0*	x	3.8	x	i	0.672
- COc1ccc(CNC(=O)CN(Cc2ccccc2)C(=O)CCC(=O)Nc2ccccn2)cc1
  0.7	1.4	-0.6	-0.1	x	i	0.692
- COc1cccc(NC(=O)CN(C)CC(=O)Nc2cccc(C(F)(F)F)c2)c1
  -5.4	0.9	3.7	5.6	1.0%	i	0.694
- N#Cc1c(-c2ccccc2)cc(-c2ccc3c(c2)OCO3)[nH]c1=O
  -1.3	-0.9	x	-290.4	x	i	0.737
- CCC(c1nnnn1C(C)(C)CC)N1CCN(c2ccccc2F)CC1 (stereo unspecified)
  -1.7	0.2	u	4.2	x	i	0.646
- O=C(/C=C/c1cccc(Cl)c1)NCCCN1CCOCC1
  -2.1	-0.2	3.5	1.0	-2.8%	i	0.731
- N#Cc1c2ccc([N+](=O)[O-])cc2[n+]([O-])n1-c1ccccc1
  -0.9	-2.5	x	x	x	i	x
- C[C@H]1CN([C@@H](C)CO)S(=O)(=O)c2ccc(Br)cc2O[C@@H]1CN(C)C(=O)Cc1cccnc1
  -1.9	-0.8&2.7	x	x	2.1%	i	x
- CCOCc1cc(CN2CCCC(CNC(=O)c3ccco3)C2)ccc1OC (stereo unspecified)
  -0.9	-9.4	1.3	4.6	3.9%	i	0.658
- CC(C(=O)NC1C=CS(=O)(=O)C1)N1C(=O)/C(=C/c2cccc(Cl)c2)SC1=S (stereo unspecified)
  3.8	14.0	4.6	9.6	3.5%	i	0.696
- CCOc1ccc(N=C(NC#N)SC)cc1
  -1.0	x	5.5	2.1	1.9%	x	0.686
- O=C(CC1CS(=O)(=O)CC1CC(=O)Nc1ccc2c(c1)OCCO2)Nc1ccc2c(c1)OCCO2 (stereo unspecified)
  3.2	-2.5	0.7	0.7	5.3%	i	0.718
- CCOC(=O)C1CCN(S(=O)(=O)c2ccc(OC)c(Cl)c2)CC1
  2.7	-0.7	-0.2	-1.2	1.6%	i	0.652
- CC1Cc2ccccc2N1S(=O)(=O)c1cccc(C(=O)NNC(=O)c2ccccc2F)c1 (stereo unspecified)
  -1.6	u	x	0.7	7.2%	i	0.692
- c1ccc2c(c1)Sc1cnccc1N2CC1CO1 (stereo unspecified)
  -1.5	8.2	x	x	-12.6%	i	x
- O=[N+]([O-])c1ccc(N2CCCCC2)cc1N1CCOCC1
  3.2	4.9	-4.5	13.6	2.1%	i	0.651
- Cc1ccc(NC(=O)CSc2n[nH]c(-c3ccncc3)n2)cc1
  5.0	x	2.5	-1.0	-0.4%	x	0.712
- CCC(C(=O)NC1CCCC1)N(C(=O)Cn1nnc(-c2ccc(C)o2)n1)c1cccc(O)c1 (stereo unspecified)
  -0.1	3.7	3.6	0.3	x	x	0.685
- Cc1noc(C)c1CSCC(=O)Nc1cc(C(F)(F)F)ccc1N1CCCCC1
  1.9	-1.0	-0.2	3.2	-1.2%	i	0.66
- COc1ccc(CN(C(=O)Cn2nnc(-c3ccc(C)o3)n2)C(C(=O)NCC2CCCO2)c2ccco2)cc1 (stereo unspecified)
  -1.4	-4.0	-2.0	1.0	23.7%	i	0.689
- C[C@H](CO)N1C[C@H](C)[C@@H](CN(C)C(=O)Nc2ccc3c(c2)OCO3)Oc2ccc(NC(=O)C3CCCCC3)cc2C1=O
  -4.2	-1.3	x	2.9	x	i	x
- COc1ccc(C#Cc2ccc(C3=CC(=O)CC(C)(C)C3=O)cc2)cc1
  34.0	-0.2	x	x	-140.3%	i	x
- O=C(Nc1nnc(C2COc3ccccc3O2)o1)c1ccc(F)cc1 (stereo unspecified)
  -3.6	x	7.3	1.4	x	x	0.346*
- C/C(=N/NC(=O)c1ccc(Cn2cccn2)o1)c1cccc(NC(=O)c2ccncc2)c1
  2.6	-1.3	1.7	x	x	i	x
